# Screening data as filed in PubChem.
# Cruzain noTriton = qHTS Assay for Promiscuous and Specific Inhibitors of Cruzain (without detergent) | purified cruzain, Z-FR-AMC fluorescence, no detergent | Potency, µM, for inactives: max response, negative = inhibition, hits mostly inhibitors | 200,000 tested, 2.3% active | AID 1476, 2009;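 further: plate controls were enzyme without inhibitor for no effect and buffer without enzyme for full effect; nearly all actives have a fitted effect of over 40% in size; top concentration of the series not given in the record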
# Target sequence (P25779 123-467 limits assumed): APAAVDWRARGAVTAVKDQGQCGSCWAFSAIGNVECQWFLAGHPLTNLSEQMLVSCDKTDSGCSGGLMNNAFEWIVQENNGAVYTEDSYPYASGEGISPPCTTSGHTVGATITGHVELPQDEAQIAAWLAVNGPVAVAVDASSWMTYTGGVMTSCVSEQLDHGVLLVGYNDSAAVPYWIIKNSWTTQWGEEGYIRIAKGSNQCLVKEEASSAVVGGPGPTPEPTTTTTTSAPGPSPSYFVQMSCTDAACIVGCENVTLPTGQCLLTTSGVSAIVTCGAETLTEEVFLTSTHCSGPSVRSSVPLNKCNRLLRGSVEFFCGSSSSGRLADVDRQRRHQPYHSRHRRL
#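 Detergent-free condition (0.00005% Triton X-100) in acetate buffer pH 5.5 with DTT. 1.5 nM enzyme and compound were pre-mixed 15 min, then 2 uM Z-FR-AMC substrate added; reaction progress from fluorescence change between first and third reads (60 s).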
# Marburg entry inh = qHTS for inhibitors of binding or entry into cells for Marburg Virus | 300,000 tested, 1.8% active | Potency, µM (doses to about 37.8 µM), without a hit: top-dose activity change, negative = inhibition, most hits filed as inhibitors | Marburg virus pseudotyped entry inhibition, cell reporter; control for the full effect not named in the record; about a third of the inactives were read at about 46 µM; active = well fitted inhibition curve with a large enough effect; inconclusive = small, poorly fitted or top-dose-only effect, or effect the other way; inactive = flat fitted curve, though single readings scatter; tested in HEK293 cells; about a fifth of its hits are not listed in these tables; further: on the % scale 0 is the no-effect control and ±100 the full control effect; luciferase read-out
# SARS PLP yeast = qHTS of Yeast-based Assay for SARS-CoV PLP; S. cerevisiae expressing SARS-CoV PLpro, growth rescue; control for the full effect not named in the record; Potency, µM (series often up to 32.9 µM), for the others: at the highest dose activity, positive = growth rescue; 330,000 tested, 0.19% active; active means well fitted rising curve with a large enough effect; inconclusive means small, poorly fitted or top-dose-only effect; inactive means no such curve, though single readings can be large or run the other way; further: 0% is about no effect; nearly all actives have a fitted effect of over 55% in size; growth read by luminescence after 48 h
# RE007 growth inh = qHTS Assay for Inhibitors of the HIV-1 protein Vpr; S. pombe RE007 Vpr strain, BacTiter-Glo ATP luminescence, 24 h; control for the full effect not named in the record; Potency, µM (doses to about 92.2 µM), inactives show at the top dose activity change, negative = less growth; 360,000 tested, 0.21% active; AID 651644, 2012; active = well fitted falling curve with a large enough effect; inconclusive = small, poorly fitted or top-dose-only effect; inactive = no such curve, though single readings can be large or run the other way;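 further: on the % scale 0 is the no-effect control and ±100 the full control effect; nearly all actives have a fitted effect of over 50% in size; the assay follows cell death caused by Vpr and the record does not say whether a fall means rescue or toxicity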
#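 Fission yeast strain RE007, carrying one chromosomally integrated HIV-1 vpr copy, was seeded at OD 0.01 in PMG+AL medium with 23 nL pinned compound. After 24 h at 30 °C and 99% humidity, viability was read by BacTiter-Glo luminescence.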
# 2A StopGo = High Throughput Screening for Foot and Mouth Disease Virus Antivirals; human cells with a luciferase reporter of 2A StopGo recoding; control for the full effect not named in the record; Potency, µM (series often up to 57.9 µM), inactives show at the top dose signal change, negative = less light; 410,000 tested, 1.2% active; active = well fitted falling curve with a large enough effect; inconclusive = small, poorly fitted or top-dose-only effect; inactive = no such curve, though single readings can be large or run the other way; tested in HEK293T cells; further: on the % scale 0 is the no-effect control and ±100 the full control effect; nearly all actives have a fitted effect of over 45% in size; luciferase light after 4 h
# NS1 inh = qHTS Assay for Inhibitors of Influenza NS1 Protein Function | S. cerevisiae slowed by influenza A NS1, growth recovery by OD600 | Potency, µM (titrated, usually from 46.1 µM), for inactives: at the top dose activity, positive = more growth | 270,000 tested, 0.4% active | AID 2326, 2010; active means well fitted rising curve with a large enough effect; inconclusive means small, poorly fitted or top-dose-only effect; inactive means no such curve, though single readings can be large or run the other way; further: nearly all actives have a fitted effect of over 50% in size
#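 In this qHTS, NS1 from influenza A is expressed in budding yeast, where it slows growth. Cells are switched from glucose to 2% galactose medium (pH 6.0, -URA), treated with compound, and growth recovery is read at OD600.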
# Cruzain Triton = qHTS Assay for Promiscuous and Specific Inhibitors of Cruzain (with detergent); Cruzipain (Trypanosoma cruzi), P25779; AID 1478, 2009; Potency, µM, without a hit: max response, negative = inhibition, usual class: inhibitors; purified cruzain, Z-FR-AMC fluorescence, 0.01% Triton; 200,000 tested, 0.43% active;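 further: plate controls were neutral wells for no effect and buffer without enzyme for full effect; nearly all actives have a fitted effect of over 40% in size; top concentration of the series not given in the record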
#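 Cruzain (1.5 nM) preincubated 15 min at RT with compound in 100 mM sodium acetate pH 5.5, 5 mM DTT, 0.01% Triton X-100. Reaction started with 2 uM Z-FR-AMC; AMC fluorescence (ex 360/em 450 nm) change over 60 s gave rate.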
# LASV entry inh = qHTS for Inhibitors of binding or entry into cells for Lassa Virus. Lassa virus pseudotype entry inhibition, cell reporter; control for the full effect not named in the record. Potency, µM (top dose mostly 37.9 µM), inactives show at the top dose activity change, negative = inhibition, most hits filed as inhibitors. 300,000 tested, 1.2% active. AID 540256, 2011; active means well fitted inhibition curve with a large enough effect; inconclusive means small, poorly fitted or top-dose-only effect, or effect the other way; inactive means flat fitted curve, though single readings scatter; tested in HEK293 cells; further: on the % scale 0 is the no-effect control and ±100 the full control effect; nearly all actives have a fitted effect of over 50% in size; luciferase read-out
# * hit, by the source's call; ? = inconclusive; / = no result given; & = joins results of further samples; [ ] = another dose, or the depositor's remark. Unless noted, the call rests on the fitted dose curve; in most records, active means well fitted curve in the direction sought with a large enough effect; inconclusive means small, poorly fitted or top-dose-only effect, or another doubt; inactive means no such curve, though single readings can be large; an effect the other way counts as inactive or inconclusive. Potency means the concentration at half of the fitted maximal effect.
SMILES,Cruzain noTriton,Marburg entry inh,SARS PLP yeast,RE007 growth inh,2A StopGo,NS1 inh,Cruzain Triton,LASV entry inh
Cn1c(O)c(N=NC(=O)Cn2c(C(F)(F)F)nc3ccccc32)c2ccccc21,?,?,-14%,23%,?,10%,-7.3%,-6%
CCCCSc1nnc(-c2ccccc2NC(C)=O)c(=O)[nH]1,/,6%[46.1 µM],1%,-9%,7%,5%,/,?
COc1cccc(C(=O)Nc2cc(-c3ccccc3)nn2-c2ccccc2)c1,-7%,/,/,/,-17%,/,-0.2%,20%[46.1 µM]
CCC(=O)Nc1cccc(C(=O)N(Cc2ccccc2)Cc2ccccc2)c1,/,/,-2%,9%,-15%,-12%,/,/
Cc1cc(CN(C)Cc2c(C(=O)N3CCCCCCC3)nc3ccc(Cl)cn23)n[nH]1,/,?,2%,0%,-2%,4%,/,?
Cn1c(=O)c2c(ncn2CCCNC2=CC(C)(C)CC(=O)C2)n(C)c1=O,3%,/,2%,/,/,5%,1.9%,/
Cc1ccc(O)c(C(=O)c2cnc(/N=C(\N)N(C)C)nc2)c1,/,1%[46.1 µM],6%,9%,-1%,8%,/,-7%
Cc1nc(N2CCOCC2)c2c(C(=O)Nc3cccc(C(F)(F)F)c3)c(C)oc2n1,-9%,/,/,/,-12%,/,-1.6%,15%[46.1 µM]
Cc1ccc(C)c(-n2[nH]c3c4c(ccc3c2=O)C(=O)c2ccccc2C4=O)c1,-2%,3%,3%,-9%,0%,11%,-11%,-1%
COc1ccc2nc(Nc3nc(-c4ccncc4)cs3)sc2c1,/,?,-4%,-15%,19%,/,/,-5%[46.1 µM]
CN(C)S(=O)(=O)c1cccc(NC(=O)CSc2nc3ccccc3[nH]2)c1,/,?,4%,38%,0%,/,/,?
CC(C)OCCCNC(=S)N1CCC(C(=O)c2ccc3c(c2)OCCO3)CC1,/,/,0%,7%,-6%,-6%,/,/
CCOc1cc(C2Nc3ccccc3C(=O)N2c2ccccc2OC)ccc1O (configuration not stated),6%,?,-1%,25%,-2%,0%,-3.2%,3%
CC(=O)N1CC(=O)N(Cc2ccccc2)/C(=C/c2ccccc2)C1=O,/,-21%[46.1 µM],0%,-4%,-22%,/,/,-3%[46.1 µM]
O=[N+]([O-])c1cc(Oc2cccnc2)cc([N+](=O)[O-])c1,-6%,-21%,-29%,0%,-7%,/,3.3%,0%
CCn1nc(C(=O)NCc2ccco2)c(Cl)c1Cl,4%,?,17%,4%,-13%,24%,-1.1%,12%
CCc1ccc(CN(C)C(=O)c2cc(COc3ccc(OC)cc3Cl)on2)nc1,/,-1%,0%,-14%,-11%,-45%,/,?
COc1cccc(CN(C)C(=O)Cc2ccc(OC)c(S(=O)(=O)N3CCOCC3)c2)c1,/,-11%[46.1 µM],-2%,-4%,11%,/,/,-23%
CN(C(=O)CSc1nnc(CNC(=O)c2ccccc2)o1)c1ccccc1,/,8%,2%,-14%,-11%,6%,/,-1%
COc1cc(N=Nc2c(C)n(C)n(-c3ccccc3)c2=O)ccc1N,/,?,-1%,-14%,21%,/,/,17%
CC(C)(C)C(=O)COC(=O)C1=NN(c2ccccc2)C(=O)CC1,/,22%,3%,15%,-8%,12%,/,2%
C[C@@H](C(=O)Nc1ccc2c(c1)OCO2)n1c(=O)[nH]c2ccccc2c1=O,/,13%[46.1 µM],1%,13%,11%,8%,/,6%[46.1 µM]
O=c1c2ccccc2cnn1Cc1ccc(Br)cc1F,/,-3%[46.1 µM],0%,-3%,20%,-8%,/,?
CC1=C(C(=O)OC(C)C)C(c2cccnc2)C2=C(CC(C)(C)CC2=O)N1 (configuration not stated),-3%,-10%,17%,-12%,-6%,0%,-2.2%,-2%
O=C(Cn1c(=O)n(-c2ccccc2)c(=O)c2c3c(sc21)CCCC3)Nc1ccccc1,9%,2%[46.1 µM],/,/,5%,/,0.3%,?
Cc1ccc(NC(=O)Cn2c(=O)n(-c3ccc(C)cc3)c(=O)c3c2cnn3C)cc1,9%,16%[46.1 µM],/,/,-12%,/,-2.4%,1%[46.1 µM]
C/C(CC(=O)Nc1c(C)cc(C)cc1C)=N\NC(=O)c1cnccn1,-4%,3%,14%,/,-2%,-3%,-4.0%,18%
CCOC(=O)C1=C(C)NC(=O)NC1c1ccc(OC(C)C(=O)O)c(OC)c1 (configuration not stated),-2%,2%,2%,13%,/,-1%,-1.2%,-11%
O=C(CCS(=O)(=O)c1nc(-c2cccs2)cc(C(F)(F)F)n1)Nc1ccc(Br)cc1,-18%,?,/,/,40µM*,/,-3.4%,-24%[46.1 µM]
CC1(C)Cc2c(sc(NC(=O)C(=O)N3CCCC3)c2C(=O)O)CO1,/,/,2%,2%,2%,12%,/,/
O=C(c1ccc(Cl)c(S(=O)(=O)N2CCOCC2)c1)N(Cc1ccco1)Cc1cccs1,/,?,-3%,-23%,0%,/,/,?
CC1CCCN(S(=O)(=O)Cc2ccc(Cl)cc2)C1 (configuration not stated),-1%,23%,-5%,-10%,9%,-2%,1.5%,?
COc1ccc(NC(=O)CSC2=Nc3ccccc3C3=NC(CC(=O)NCc4ccco4)C(=O)N23)cc1 (configuration not stated),1%,/,/,/,-15%,/,1.1%,5%[46.1 µM]
CC(=O)C1=NN(c2ccc(Cl)cc2)C(c2ccc3c(c2)OCO3)N(C(C)=O)N1C (configuration not stated),/,/,-3%,0%,-15%,5%,/,/
COc1ccccc1N1CCN(C(=O)c2cc(C(C)(C)C)oc2C)CC1,/,10µM*,-1%,-3%,-16%,-3%,/,-29%[46.1 µM]
COc1ccc(NC(=O)c2cc3ccc4c5ccccc5[nH]c4c3cc2O)cc1,/,-20%[46.1 µM],1%,-8%,-3%,1%,/,16%[46.1 µM]
CCc1ccc(OS(=O)(=O)c2cn(C)c(=O)n(C)c2=O)cc1,/,22%,0%,-6%,3%,/,/,3%
C#CCn1cc(C=C2C(=O)c3ccccc3C2=O)c2ccccc21,-4%,12%,5%,-4%,58%[activator],4%,-6.8%,14%
CC1CCCCN1CCCNC(=O)Cn1ncc2c3ccccc3n(Cc3ccccc3F)c2c1=O (configuration not stated),?,-3%[46.1 µM],/,/,-25%,/,-2.0%,-2%[46.1 µM]
Cc1ccc(-c2nnc(COC(=O)c3cccs3)o2)cc1,/,/,?,-19%,53%[activator],-46%,/,/
CCCCn1c(-c2csc3c2CCCC3)n[nH]c1=S,2%,3%,0%,2%,-7%,-88%,-10%,0%
Cc1sc(NC(=O)CN2CCOCC2)c(C(=O)c2ccccc2)c1C,12%,-5%,-2%,-2%,-25%,-19%,-3.4%,2%
N#CC1(P(=O)(c2ccccc2)c2ccccc2)CC1,13%,0%&0%[46.1 µM],-3%,17%,-12%,1%,-8.3%,7%
CCOC(=O)C1CCCN(C2CC(=O)N(c3ccc(C)c(C)c3)C2=O)C1 (configuration not stated),8%,1%,-38%,28µM*,5%,-78%,1.7%,-3%
Cc1ccnc(-n2sc3ccccc3c2=O)n1,-22%,12%,-48%,-3%,26%,-145%,-2.2%,-15%
CCOc1cc(/C=N/NC(N)=O)ccc1OCC(=O)Nc1ccc(C)c(C)c1,/,-14%[46.1 µM],1%,22%,-13%,2%,/,-11%
Cn1ncc([N+](=O)[O-])c1C(=O)Nc1ccccc1Cl,/,-2%[46.1 µM],6%,0%,-3%,-7%,/,16%[46.1 µM]
O=C(NCCCn1ccnc1)c1cccnc1,-8%,4%&4%,-1%,21%,7%,9%,0.5%,0%
CCC(=O)N1c2ccccc2NC2=C(C(=O)CCC2)C1c1ccc(N(C)C)cc1 (configuration not stated),-12%,9%,7%,4%,45%[activator],-14%,-1.9%,-2%
CC(C)Sc1nnc(-c2ccc(S(=O)(=O)N3CCOCC3)cc2)n1C,/,?,0%,3%,-4%,6%,/,/
CCOC(=O)c1cc(-c2ccccc2)sc1NC(=O)C(C)Sc1nnc(C)s1 (configuration not stated),26%,-3%[46.1 µM],-16%,-8%,-15%,?,-3.6%,-9%
CC(C)NC(=O)CN1C(=O)NC(CCc2ccccc2)C1=O (configuration not stated),0%,0%,3.5µM*,0%,-7%,14%,2.9%,17%
Cc1cc(C)c(C)c(C(=O)COC(=O)CNC(=O)CNC(=O)c2ccco2)c1C,/,10%[46.1 µM],10%,-14%,4%,-3%,/,15%
COc1ccc(C(=O)NNC(=S)NC(=O)c2ccccc2[N+](=O)[O-])cc1,-2%,?,11%,10%,-14%,-39%,-2.0%,-2%
COc1ccc(-c2nc3c(c(=O)[nH]c(=O)n3Cc3ccccc3)n2CCO)cc1,/,-1%[46.1 µM],1%,21%,-19%,12%,/,2.2µM*
Clc1ccc(Cn2c(-c3cccnc3Cl)nc3ccccc32)c(Cl)c1,5%,-23%,-5%,9%,?,-28%,-1.4%,-5%
CCOC(=O)N1CCC(=NNC(=O)NC2CCCCC2)CC1,/,13%[46.1 µM],1%,-8%,-5%,1%,/,-15%[46.1 µM]
CCc1ccccc1NC(=O)Cn1nc(-c2cc(C)ccc2C)c2c(c1=O)CCCC2,-5%,?,/,/,-12%,/,-0.2%,-5%[46.1 µM]
CSc1cccc(NC(=S)N(C(C)C)C(C)c2ccccn2)c1 (configuration not stated),/,-1%[46.1 µM],1%,15%,-11%,/,/,29%
CCC(CC)c1nn2c(=O)cc(COc3ccc(NC(=O)c4ccc(C)cc4)cc3)nc2s1,-6%,?,/,/,-23%,/,0.2%,4%[46.1 µM]
CC1CCCCC1NC(=O)C(=O)NCC1CCCO1 (configuration not stated),3%,?,-3%,5%,1%,5%,-2.0%,28%
COc1ccc(C(=O)OCC(=O)c2ccc3c(c2)NC(=O)CO3)cc1S(=O)(=O)N1CCOCC1,/,18%[46.1 µM],0%,10%,-6%,/,/,10%[46.1 µM]
CC(C)(C)Cc1nc2ccccc2n1CCc1ccccc1,-4%,?,17%,-7%,?,-77%,-3.1%,?
